H5N1 CPE: MDCK cell protection from H5N1 avian flu; cytopathic effect, luminescence, 72 h; stronger effect = higher value; no value below 0 was filed and about half of the inactive calls have no number; reference of the scale not given here; inhibition, % at 50 µM; 96,000 tested, 0.07% active; AID 740, 2007; in the data active means inhibition above about 25%
Numbers without * were called inactive; i = inactive. Only part of the results is shown (hit frequency here may not be typical).

SMILES	H5N1 CPE
Cc1ccc(NC(=O)C2C(c3ccccc3)C2(Cl)Cl)c(C)c1 (configuration not stated)	i
O=C(Nc1ccccc1OC(=O)N1CCCCC1)N1CCCCC1	i
Cc1ccccc1NC(=O)Cc1cn(C)c2ccccc12	0.1
COc1ccccc1CN1CCSCC1	i
Cc1cc(OCC(=O)c2ccc(F)cc2)ccc1N1C(=O)CCC1=O	1.5
Cc1ccc(/C=c2\sc3nc(-c4ccccc4Br)nn3c2=O)o1	0.3
COc1cc(/C=C2\OC(=O)c3c(OC)cccc32)ccc1O	2.3
Cn1c2ccc(F)cc2c2ncn(Cc3ccco3)c(=O)c21	2.1
C/C(Cl)=C/Cn1c(SCCN2CCOCC2)nc2c1c(=O)[nH]c(=O)n2C	2.2
c1ccc(-c2n[nH]c(-c3ccccc3)c2-c2nc3ccccc3[nH]2)cc1	0.1
Cc1ccc(C(=O)COC(=O)CCC(=O)Nc2cccc(Cl)c2)cc1[N+](=O)[O-]	0.3
CCCOc1ccc(C(=O)NCc2cccnc2)cc1	0.6
COC(=O)c1nn(-c2ccc3c(c2)OCO3)cc1O	i
CC1Cc2nc(SCC(=O)OCc3ccccc3)n(C)c(=O)c2S1 (configuration not stated)	0.8
CCOC(=O)N1CCN(C(=O)c2ccc3c(=O)n(-c4ccc(OC)cc4)c(=S)[nH]c3c2)CC1	i
CCCCn1c(CCn2nc(C)c(Br)c2C)n[nH]c1=S	0.3
Cc1cc(C(=O)N2CCN(CCc3ccccc3)CC2)no1	i
O=[N+]([O-])c1cc2c(cc1C=Nc1ccccc1)OCO2	i
CCn1cc(C(=O)OCc2ccccc2)c(=O)c2ccc(C)nc21	i
O=C(CN1CCN(S(=O)(=O)c2ccc(Br)cc2)CC1)Nc1ccccc1F	4.0
CC(=O)Nc1ccc(S(=O)(=O)N2CCSCC2)cc1	i
Nc1c(-c2cccc(Cl)c2)cnn1-c1cccc(C(F)(F)F)c1	i
Cc1ccc(NC(=O)NCCCN2CCCC2=O)cc1	1.4
Cc1ccccc1N=C(NOCc1ccccc1)c1nonc1N	4.6
COC(=O)c1cc(=O)n(Cc2ccc3c(c2)OCO3)c(=Nc2ccc(F)cc2)s1	i

More structures follow:
SMILES	H5N1 CPE
O=C(CCCN1C(=O)CSc2ncccc21)N1CCN(c2cccc(C(F)(F)F)c2)CC1	5.8
CCS(=O)(=O)Nc1c(C(=O)OC)[nH]c2ccccc12	i
CCOc1ccc(Cn2nnc(C(=O)NCc3ccc(OC)cc3)c2N)cc1	i
Cn1c(-c2ccccc2)cccc1=O	i
CCOC(=O)N1CCC(NC(=O)CCS(=O)(=O)c2ccc3c(c2)CCN3C(=O)CC)CC1	i
O=C(CC(=O)c1ccccc1O)c1ccc(F)cc1	4.5
CC(=O)N1c2ccc(S(=O)(=O)CCC(=O)O)cc2CC1C (configuration not stated)	0.6
CCOc1ccc(N2CC(C(=O)Nc3cccc(C)c3C)CC2=O)cc1 (configuration not stated)	i
Cc1cc(C)c(S(=O)(=O)N2CCC(C(=O)NCc3ccco3)CC2)c(C)c1	i
O=C(O)c1ccc(F)c(S(=O)(=O)Nc2ccccc2)c1	0.5
COc1cccc(OCc2nnc(SCC(=O)NCc3ccco3)n2CCc2ccccc2)c1	i
CC(C)(C)NC(=O)CSc1nc(-c2ccccc2)c(-c2ccccc2)[nH]1	i
CNC(=O)C1C2C=CC3(O2)C1C(=O)N(C1CC1)C3C(=O)NCc1ccc(OC)cc1 (configuration not stated)	0.8
COC(=O)CSC1=C(C#N)C(c2ccccc2OC)C(C(=O)OC)C(=O)N1 (configuration not stated)	i
Cc1c(C(=O)N2CCCCC2)sc(NC(=O)C(C)C)c1C#N	i
COc1ccc(C=NCC2COc3ccccc3O2)cc1OC (configuration not stated)	0.5
CCOc1c(OC)cc(C2C(C#N)=C(N)Oc3n[nH]c(-c4ccncc4)c32)cc1OC (configuration not stated)	i
COC(=O)c1ccc(Sc2ccc(Cl)cc2)c(N)c1	i
COc1ccc(C(=O)c2ccc(OC)c(OC)c2)cc1OC	0.3
Cn1cc(SCC(=O)Nc2ccc3c(c2)OCO3)c2ccccc21	i
CCCC1=Nc2cc(C(=O)NCCCOC(C)C)ccc2Sc2ccccc21	i
Fc1ccc(CSc2nnc(CN3CCOCC3)n2-c2ccccc2)c(Cl)c1	4.4
Cc1cccc(C)c1N1C(=O)CC(N(O)c2ccccc2)C1=O (configuration not stated)	i
Cc1ccc(C)c(NC(=S)NNC(=O)c2ccc(Br)o2)c1	i
CC(=O)O/N=C(/C)c1ncc(C(F)(F)F)cc1N1CCOCC1	i

Following part:
SMILES	H5N1 CPE
O=C(CN1CCC(Cc2ccccc2)CC1)NC(=O)NCc1ccco1	0.6
CCCCN(CCCC)C(=S)N/N=C/c1c(C)[nH]n(-c2ccccc2)c1=O	i
COCCCn1c(SCC(=O)OC2CCCCC2)nnc1-c1cccs1	1.8
Cc1nn(Cc2ccc(F)cc2)c(C)c1NC(=O)c1cc(-c2ccc3c(c2)OCO3)on1	i
Cc1ccc(S(=O)(=O)NC2=NCN(C3CCN(Cc4ccccc4)CC3)CN2)cc1	i
Cc1ccc(C(=O)Nc2ccc(N3CCOCC3)nc2)cc1	3.0
COC(=O)CNC(=O)CN1C(=O)N(c2ccc(Cl)cc2)C(N(O)C(=O)Nc2ccc(Cl)cc2)C1(C)C (configuration not stated)	i
Cc1ccc(N(CN2CCCC2=O)C(=O)c2ccc(OC(C)C)cc2)cc1	0.0
COc1ccccc1N1CCN(/N=C\c2ccc(C)o2)CC1	i
COc1ccccc1NC(=O)CN(C)S(=O)(=O)c1ccc2c(c1)CCC(=O)N2	0.4
COc1cccc(OC)c1C(=O)NC(=S)Nc1ccc2c(c1)Cc1ccccc1-2	i
O=C(Cn1c(C(F)(F)F)nc2ccccc21)c1ccccc1	0.9
O=C1C2C3C=CC(C3)C2C(=O)N1CNc1ccccc1 (configuration not stated)	1.6
COc1ccc(Cc2nc(-c3ccccc3)no2)cc1	i
CCOC(=O)Cc1c(C)nc2c(C#N)c(C)nn2c1C	i
CCOc1cc(NC(=O)C2CCCO2)c(OCC)cc1NC(C)=O (configuration not stated)	i
COc1cccc2c(=O)c(C/C=C(/C)Cl)c(C)[nH]c12	0.6
c1coc(CN2CN=C(Nc3nc4ccccc4s3)NC2)c1	0.5
O=C(CN1CCCCC1)Nc1ccc(S(=O)(=O)N2CCOCC2)cc1	i
COc1ccc(C(=O)NC2CCCCCC2)cc1S(=O)(=O)N1CCCc2ccccc21	i
CC1CC(C)CN(C(=O)COC(=O)c2cc3ccccc3cc2O)C1 (configuration not stated)	i
COc1cc(NC(=O)c2c(F)c(F)c(F)c(F)c2F)c(OC)cc1Cl	i
Cn1nc([N+](=O)[O-])nc1Sc1nnc(-c2ccccc2)o1	28*
O=C(Nc1ccc(/C=C/c2nc3ccccc3o2)cc1)c1cccc(C(F)(F)F)c1	i
CC1CC(C)CN(C(=O)Cn2c(=O)n(CCCCC(=O)NCc3ccco3)c(=O)c3ccccc32)C1 (configuration not stated)	0.2

Continued; the last 2 above are carried over.
SMILES	H5N1 CPE
O=C(Nc1ccc(/C=C/c2nc3ccccc3o2)cc1)c1cccc(C(F)(F)F)c1	i
CC1CC(C)CN(C(=O)Cn2c(=O)n(CCCCC(=O)NCc3ccco3)c(=O)c3ccccc32)C1 (configuration not stated)	0.2
CC1Oc2ccccc2N(Cc2ccccc2Cl)C1=O (configuration not stated)	i
CCOc1ccc(-c2nnn(CC(=O)NCc3ccc(F)cc3)n2)cc1OCC	0.5
COCCNC(=O)COC(=O)/C=C/c1c(C)nn(Cc2ccc(Cl)cc2Cl)c1Cl	0.6
COc1ccccc1N1CCN(Cc2c(F)cccc2Cl)CC1	i
CN(C)S(=O)(=O)c1ccc(NC(=O)C2COc3ccccc3O2)cc1 (configuration not stated)	0.7
c1ccc2c(COn3nnc4ccccc43)cccc2c1	i
CCOc1cccc(NC(=O)CSc2nncn2N)c1	i
CS(=O)(=O)N(CC(O)Cn1c2ccccc2c2ccccc21)c1cccc2ccccc12 (configuration not stated)	i
COc1ccc(C)cc1NC(=O)CSc1nnc(-c2ccc(Br)cc2)o1	i
C=CCn1c(SCC(=O)c2[nH]c(C)c(C(C)=O)c2C)nnc1-c1ccncc1	0.4
COC(=O)c1ccc(C)c(NC(=O)CN(c2cc(OC)ccc2OC)S(C)(=O)=O)c1	i
COc1cccc(Nc2ncccc2C(=O)Nc2ccccc2)c1	0.6
Cc1cccc(N2CCN(S(C)(=O)=O)CC2)c1C	0.5
O=C(c1cccc(N2C(=O)C3C4C=CC(C4)C3C2=O)c1)N1CCCCCC1 (configuration not stated)	0.6
CCOC(=O)c1cc2c(=O)n3ccccc3nc2n(CCOC)c1=NC(=O)C(C)(C)C	0.7
COc1ccc(OCCNC(=S)Nc2cccc3ccccc23)cc1	i
CN(c1ccccc1)C(c1ccc(F)cc1)c1nnnn1C1CCCC1 (configuration not stated)	1.2
Oc1ccc(-c2nc3ccccn3c2NCc2ccc3c(c2)OCO3)cc1	i
Nc1cc(C(=O)O)ccc1Nc1ccccc1	i
COc1ccc(-c2oc(/N=C/N3CCOCC3)c(C#N)c2-c2ccc(OC)cc2)cc1	i
CCOC(=O)c1c(C)c(C(=O)NCC2CCCO2)c(C)n1C (configuration not stated)	0.0
CCCCN=C(Nc1ccc(Cl)cc1)c1cccnc1	1.0
Cc1noc(C)c1CSc1nnc(-c2ccccc2)n1N	i
COC(=O)COc1cccc(NC(=O)c2ccccc2)c1	i
O=C1C2C3C=CC(C3)C2C(=O)N1CCCO (configuration not stated)	0.0

No new results follow: entries from further up.
SMILES	H5N1 CPE
COc1ccc(C)cc1NC(=O)CSc1nnc(-c2ccc(Br)cc2)o1	i
C=CCn1c(SCC(=O)c2[nH]c(C)c(C(C)=O)c2C)nnc1-c1ccncc1	0.4
COC(=O)c1ccc(C)c(NC(=O)CN(c2cc(OC)ccc2OC)S(C)(=O)=O)c1	i
COc1cccc(Nc2ncccc2C(=O)Nc2ccccc2)c1	0.6
Cc1cccc(N2CCN(S(C)(=O)=O)CC2)c1C	0.5
O=C(c1cccc(N2C(=O)C3C4C=CC(C4)C3C2=O)c1)N1CCCCCC1 (configuration not stated)	0.6
CCOC(=O)c1cc2c(=O)n3ccccc3nc2n(CCOC)c1=NC(=O)C(C)(C)C	0.7
COc1ccc(OCCNC(=S)Nc2cccc3ccccc23)cc1	i
CN(c1ccccc1)C(c1ccc(F)cc1)c1nnnn1C1CCCC1 (configuration not stated)	1.2
Oc1ccc(-c2nc3ccccn3c2NCc2ccc3c(c2)OCO3)cc1	i
Nc1cc(C(=O)O)ccc1Nc1ccccc1	i
COc1ccc(-c2oc(/N=C/N3CCOCC3)c(C#N)c2-c2ccc(OC)cc2)cc1	i
CCOC(=O)c1c(C)c(C(=O)NCC2CCCO2)c(C)n1C (configuration not stated)	0.0
CCCCN=C(Nc1ccc(Cl)cc1)c1cccnc1	1.0
Cc1noc(C)c1CSc1nnc(-c2ccccc2)n1N	i
COC(=O)COc1cccc(NC(=O)c2ccccc2)c1	i
O=C1C2C3C=CC(C3)C2C(=O)N1CCCO (configuration not stated)	0.0

Carrying on:
SMILES	H5N1 CPE
CCOC(=O)c1ccc(N2C(=O)CC(N3CC(C)OC(C)C3)C2=O)cc1 (configuration not stated)	0.6
Cc1ccc(S(=O)(=O)N2CCN(C(=O)CN3CCCCC3)C2)cc1	0.7
Cc1cccc(NC(=O)C2CCCN(C(=O)NC3CCCCC3)C2)c1C (configuration not stated)	i
CCOc1ccc(C(=O)Nc2ccc(NC(=O)c3ccco3)c(Cl)c2)cc1Cl	i
CCOCc1cn(CC(=O)c2ccc(Cl)cc2)c(C)nc1=N	i
CC12C(=O)N(Cc3ccccc3)C(=O)C1C1C=CC2C1 (configuration not stated)	1.9
COc1ccc(S(=O)(=O)Nc2nc3ccccc3s2)cc1OC	i
COCCn1c(SCc2ccc(C(=O)OC)o2)nc2cc(Cl)ccc2c1=O	i
Cc1ccc(-c2nn3c(C)nnc3c3ccccc23)cc1S(=O)(=O)N(C)CCO	13
Fc1cccc(F)c1CN1CCN(Cc2c(F)cccc2F)CC1	i
O=C(Nc1ccccc1)N1CCCCC1c1cccnc1 (configuration not stated)	1.3
CC(C)(O)C#Cc1ccc(C(=O)N2CCCC2C(=O)O)s1 (configuration not stated)	i
CCn1c(COc2ccc(=O)n(-c3ccccc3)n2)nnc1SCc1ccccc1	i
CCCCN(C(=O)Cn1nnc2ccccc21)C(C(=O)NCCOC)c1ccc(OC)cc1 (configuration not stated)	0.8
O=C(CSc1ccc2c(c1)OCCO2)NCCN1C(=O)CSC1=O	i
c1ccc(-c2nc(NCC3CCCO3)c3ccccc3n2)nc1 (configuration not stated)	0.2
O=C(CSCc1cccc(Cl)c1)N1CCN(Cc2ccc3c(c2)OCO3)CC1	1.5
O=C(CCn1nc(-c2ccccc2)c2ccccc2c1=O)N1CCN(c2ccccc2)CC1	0.6
COc1cccc(NC(=O)c2ccccc2NS(C)(=O)=O)c1	i
CC1(C)CC(=O)C2=C(C1)NCN(Cc1ccccc1)C2	0.2
COc1cc2c3c(c1OC)C1(C=CC(=NO)C=C1)CC3N(C(C)=O)CC2 (configuration not stated)	0.3
Cc1ccc2nc3sc(C(=O)N4CCCc5ccccc54)c(N)c3cc2c1	i
Cc1ccc(-c2csc3ncn(CC(=O)N4CCOCC4)c(=O)c23)cc1	1.3
O=C(C1CC(c2ccc(F)cc2)=NO1)N1CCC2(CC1)OCCO2 (configuration not stated)	i
CC(CNC(=O)C1CCCCC1)NC(=O)C1CCCCC1 (configuration not stated)	0.7

Later entries:
SMILES	H5N1 CPE
O=C(CCN1C(=O)C2C3C=CC(C3)C2C1=O)NCCc1ccccc1 (configuration not stated)	i
COc1ccc(-c2nc3n(n2)C(c2ccccc2Cl)C(C(N)=O)=C(C)N3)cc1 (configuration not stated)	1.4
O=C(c1cccs1)N1CCN(S(=O)(=O)c2ccccc2)CC1	i
CN1C(=O)C2(C(C#N)=C(N)Oc3n[nH]c(-c4ccc(Cl)cc4)c32)c2ccccc21 (configuration not stated)	i
O=C(CCc1nc(-c2ccccc2)no1)NCC1CCCO1 (configuration not stated)	0.1
CN(C)CCCNS(=O)(=O)c1ccc(Oc2ncc(C(F)(F)F)cc2Cl)cc1	i
CC(C)COC(=O)n1c(SCC(=O)N(C)C)nc2ccccc21	i
Cc1nn2c(N3CCN(c4ccccn4)CC3)cc(C(C)C)nc2c1-c1ccccc1	0.2
COc1ccc(Cn2c(CCCO)nc3ccccc32)cc1OC	0.9
